KCNQ2 inh = KCNQ2 potassium channel inhibitors, primary screen, cell-based, CHO-K1, FluxOR thallium flux, B-score (AID 2156) | Potassium voltage-gated channel subfamily KQT member 2 (Rattus norvegicus), O88943 | 20 min; active compounds read low; only compounds with negative scores are shown here; some inactives read as strong as hits | B-score at 10 µM | 1.1% of 310,000 active;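 active means fluorescence ratio B-score at most minus 3 library SDs, with starting brightness B-score within 2 library SDs, cut at about -5.5 in these data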
Target sequence (O88943 whole entry, looked up): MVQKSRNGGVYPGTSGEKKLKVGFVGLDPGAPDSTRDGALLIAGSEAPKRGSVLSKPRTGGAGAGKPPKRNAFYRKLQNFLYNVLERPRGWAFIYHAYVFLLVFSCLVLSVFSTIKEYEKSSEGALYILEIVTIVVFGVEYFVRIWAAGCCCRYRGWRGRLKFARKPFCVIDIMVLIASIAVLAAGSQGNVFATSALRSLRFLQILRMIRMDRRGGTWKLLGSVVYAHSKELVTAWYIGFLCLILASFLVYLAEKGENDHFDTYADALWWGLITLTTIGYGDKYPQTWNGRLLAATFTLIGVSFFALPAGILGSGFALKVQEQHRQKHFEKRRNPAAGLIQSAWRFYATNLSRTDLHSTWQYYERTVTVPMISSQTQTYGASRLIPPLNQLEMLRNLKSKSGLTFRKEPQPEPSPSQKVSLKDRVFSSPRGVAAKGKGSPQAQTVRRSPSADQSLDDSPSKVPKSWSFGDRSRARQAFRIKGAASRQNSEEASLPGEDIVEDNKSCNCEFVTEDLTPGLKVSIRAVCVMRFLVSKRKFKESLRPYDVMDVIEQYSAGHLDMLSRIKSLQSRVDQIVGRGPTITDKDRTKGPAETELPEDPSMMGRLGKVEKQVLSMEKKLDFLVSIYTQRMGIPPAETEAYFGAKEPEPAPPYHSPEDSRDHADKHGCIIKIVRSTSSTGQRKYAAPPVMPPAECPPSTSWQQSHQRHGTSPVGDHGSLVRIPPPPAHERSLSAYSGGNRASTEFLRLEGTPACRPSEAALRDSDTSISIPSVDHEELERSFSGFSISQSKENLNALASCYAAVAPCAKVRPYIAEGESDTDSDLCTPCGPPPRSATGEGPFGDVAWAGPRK
KCNQ2 inh baseline = also measured in KCNQ2 inh; calls as there; B-score; measured here: initial fluorescence intensity artifact check;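 brightness before thallium and not channel activity; 0 = typical well and far values either way flag optical interference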
An asterisk follows results filed as active; i = inactive. Some of the compounds tested; count on the stated rates, not on these rows.

Results follow in this order: KCNQ2 inh, KCNQ2 inh baseline
[1] Cc1ccc(NS(=O)(=O)c2ccc3c(c2)NC(=O)C(C)C(=O)N3)cc1C (stereo not given)
→ i, 0.46
[2] CCOC(=O)c1[nH]c(C)c(C(=O)OCC(=O)NC(=O)NC(C)(C)C)c1C
→ i, -1.77
[3] OC(CN1C2=NCCCN2c2ccccc21)c1ccc2c(c1)OCO2 (stereo not given)
→ i, -1.73
[4] CC(O)c1nc(C(C)O)n(CC(=O)c2ccccc2)n1 (stereo not given)
→ i, 1.65
[5] CCc1cc2c(=O)nc3n(c2s1)Cc1ccccc1/C3=C(/O)c1ccc(F)cc1
→ i, -0.49
[6] COc1cc(OC)c(/C=N/N2CCN(c3ccccc3OC)CC2)c(OC)c1
→ i, -0.26
[7] CCOC(=O)N1CCN(CC(O)COc2ccc(C)cc2C(C)(C)C)CC1 (stereo not given)
→ i, -0.02
[8] COc1ccc(CCNC(=O)c2c(O)c3cccc4c3n(c2=O)CC4)cc1
→ i, -0.54
[9] CC(C)COc1ccc(C(=O)N/C(=C\c2cccc([N+](=O)[O-])c2)C(=O)OC(C)C)cc1
→ i, -0.08
[10] CCc1c(C)sc(NC(=O)C2CCCO2)c1C#N (stereo not given)
→ i, 1.01
[11] Cc1cc(NC(=O)CCCn2cc([N+](=O)[O-])cn2)n(Cc2ccc(F)cc2)n1
→ i, 0.01
[12] Cc1ccc(N(C)C(=O)N2CCN(S(=O)(=O)c3ccc(C)c(C)c3)CC2)cc1
→ i, -1.05
[13] CC1(C)Cc2ccccc2C(N/N=C/c2ccc(Cl)cc2)=N1
→ i, 1.75
[14] Cc1ccc(Cl)cc1NC(=O)c1cc(S(=O)(=O)N2CCOCC2)cn1C
→ i, 0.04
[15] COC(=O)C1=C(C)NC(=O)CC1c1cc(Br)ccc1F (stereo not given)
→ i, -2.39
[16] COc1ccc(S(=O)(=O)N(Cc2nc3ccccc3c(=O)[nH]2)C2CCCC2)cc1
→ i, 4.63
[17] CC(C)Sc1oc(-c2ccco2)nc1S(=O)(=O)c1ccccc1
→ i, 1.98
[18] O=C(CCn1c(=O)oc2ccccc21)Nc1cccc(Br)c1
→ i, 2.23
[19] CCN(C(=O)/C=C/c1ccc2c(c1)OCO2)c1ccccc1
→ -5.99*, -0.01*
[20] CC(=O)C1=NN(c2ccccc2)C(c2cccs2)N1c1ccc(N(C)C)cc1 (stereo not given)
→ i, 1.67
[21] Cc1cc(C)n(-c2nnc(C)n2/N=C/c2cc(Br)ccc2OCc2ccccc2)n1
→ i, 1.91
[22] O=C(CSc1nnc(CNc2ccccc2)o1)N1CCN(C(=O)c2ccco2)CC1
→ i, -0.69
[23] COc1ccc(NS(=O)(=O)c2cccc(C(=O)N3CCN(Cc4ccc5c(c4)OCO5)CC3)c2)cc1
→ i, 0.79
[24] O=C(CSc1nc2ccc(Cl)cc2[nH]1)c1c[nH]c2ccccc12
→ i, 1.11
[25] CCC1(CC)NC(=O)N(CC(=O)NC(=O)NCc2ccccc2)C1=O
→ i, -0.16
[26] CC(=O)c1cnc2nc(SCc3ccccc3)nn2c1C
→ i, -0.02
[27] N/C(Cn1cncn1)=N\OC(=O)c1ccc(Cl)cc1
→ i, 1.23
[28] CC(=O)Nc1ccc(S(=O)(=O)N2CCN(CC3CC4C=CC3C4)CC2)cc1 (stereo not given)
→ i, -1.47
[29] O=C(NCc1ccco1)c1cc([N+](=O)[O-])ccc1Cl
→ i, 0.9
[30] CCCc1cc(=O)[nH]c2nnc(SCC(=O)N3CC(C)OC(C)C3)n12 (stereo not given)
→ i, 0.43
[31] COC(=O)[C@H](Cc1ccccc1)NC(=O)NC(C)CCc1ccccc1 (stereo not given in full)
→ i, -0.48
[32] O=C(c1ccccn1)N1CCCC(N2CCN(Cc3ccc4c(c3)OCO4)CC2)C1 (stereo not given)
→ i, -1.07
[33] Brc1ccc(CN2CCN(Cc3c[nH]c4ccccc34)CC2)cc1
→ i, 0.04
[34] COc1cccc(OC)c1C(=O)Nc1c(C)n(C)n(-c2ccccc2)c1=O
→ i, -0.02
[35] O=C(O)CC(c1ccc(OC2CCCC2)cc1)N1C(=O)c2ccccc2C1=O (stereo not given)
→ i, 0.4
[36] Cc1ccc(-n2c(O)c(/C=N/Nc3ccc(S(=O)(=O)N4CCOCC4)cc3[N+](=O)[O-])c3ccccc3c2=O)c(C)c1
→ i, -0.03
[37] CCC1(C)Cc2c(sc3nn[nH]c(=O)c23)CO1 (stereo not given)
→ i, 0.51
[38] CC(C)N(C(=O)CSc1nc2ccccc2n1-c1ccccc1)C(C)C
→ -6.01*, 1.4*
[39] N#CCCN(C(=O)COC(=O)CNC(=O)c1cccs1)c1ccc(F)cc1
→ i, -1.07
[40] O=C(Nc1ccccc1C(=O)O)c1cc(S(=O)(=O)Nc2cccc(F)c2)ccc1Cl
→ i, 2.95
[41] CCOP(=O)(O)c1ccccc1OCCOc1ccccc1P(=O)(O)OCC
→ i, 0.12
[42] O=C(/C=C/c1ccco1)N(Cc1cccc(Br)c1)C1CCS(=O)(=O)C1 (stereo not given)
→ i, 0.8
[43] O=C(Nc1nnc(C2CC2)s1)c1ccc(Cl)c(S(=O)(=O)N2CCc3ccccc3C2)c1
→ i, 0.09
[44] CSc1ccccc1C(=O)NCCSc1ccccc1
→ i, 1.41
[45] Cc1ccccc1N1CCN(C2=NC(=O)/C(=C\c3cccs3)S2)CC1
→ i, -1.41
[46] O=C(C(F)C(F)(F)F)N1CCN(c2ccccc2)CC1 (stereo not given)
→ i, 1.41
[47] O=C(c1sccc1-n1cccc1)N1CCCC1
→ i, 0.31
[48] CC(C)c1ccc(NC(=O)c2cc(S(=O)(=O)NCC3COc4ccccc4O3)ccc2F)cc1 (stereo not given)
→ i, -0.78
[49] CN(C)CCCSc1nc2ccccc2s1
→ i, 0.07
[50] CCOc1ccc(CCNC(=O)Cn2c(=O)oc3ccccc32)cc1OCC
→ i, 0.09
[51] c1ccc(C(c2nnnn2C2CCCCC2)N2CCc3ccccc3C2)nc1 (stereo not given)
→ i, -0.02
[52] Cc1noc(C)c1S(=O)(=O)N(CC(=O)N1CCCCCC1)c1ccc(C(C)C)cc1
→ i, 1.55
[53] CC1=C(C(=O)OCc2ccccc2)C(c2ccc(Br)cc2)NC(=O)N1CCCCCC(=O)O (stereo not given)
→ i, -1.03
[54] OCCN(Cc1ccccc1)Cc1ccccc1O
→ i, 0.57
[55] COC(=O)CSc1nnc(CNc2ccc(Cl)cc2)n1Cc1ccccc1
→ i, -1.15
[56] CC1CCC(NC(=O)C2CCN(c3nc4ccccc4s3)CC2)CC1 (stereo not given)
→ i, 0.08
[57] Cc1cc(C)n(CCOc2ccc(Br)cc2)n1
→ i, 0.17
[58] O=C(OCC(=O)N1CCOCC1)c1ccc(Cl)cc1[N+](=O)[O-]
→ i, 1.04
[59] CCCc1nnc(SCc2ccc(OCC)cc2)n1N
→ i, -0.2
[60] CN(c1cccc(NC(=O)Nc2cccc(Cl)c2)c1)S(C)(=O)=O
→ i, -3.35

Later entries:
cpd	Structure	KCNQ2 inh	KCNQ2 inh baseline
61	O=C(O)c1cc(S(=O)(=O)N2CC3CC3C2C(=O)O)c(Cl)cc1Cl (stereo not given)	i	0.01
62	O=C(NCN1C(=O)C2C3C=CC(C3)C2C1=O)Nc1cccnc1 (stereo not given)	i	0.87
63	CCCn1c(C(O)c2cc(OC)ccc2OC)nc2ccccc21 (stereo not given)	i	1.24
64	Cc1c(Cc2ccc3c(c2)OCO3)sc(NC(=O)C2CC2)c1C(N)=O	i	-1.22
65	COc1cc(OC)cc(C(=O)N[C@H](C(=O)OCC(=O)NC(=O)c2cccn2C)C(C)C)c1	i	-1.07
66	COc1ccc(N2CCC(N3CCN(C)C(CCO)C3)CC2)cc1 (stereo not given)	i	-2.22
67	Cc1ccc(/C=C/C(=O)O)cc1S(=O)(=O)NCCO	i	-0.32
68	CCOC(=O)c1c(NC(=O)CSc2ncn[nH]2)sc(C(=O)NC)c1C	i	2.32

Single entries from the results shown:
Under KCNQ2 inh baseline, entry 64 is entered as -1.22
Under KCNQ2 inh baseline, entry 67 is entered as -0.32

A section from the list above:
cpd	Structure	KCNQ2 inh	KCNQ2 inh baseline
62	O=C(NCN1C(=O)C2C3C=CC(C3)C2C1=O)Nc1cccnc1 (stereo not given)	i	0.87
63	CCCn1c(C(O)c2cc(OC)ccc2OC)nc2ccccc21 (stereo not given)	i	1.24
64	Cc1c(Cc2ccc3c(c2)OCO3)sc(NC(=O)C2CC2)c1C(N)=O	i	-1.22
65	COc1cc(OC)cc(C(=O)N[C@H](C(=O)OCC(=O)NC(=O)c2cccn2C)C(C)C)c1	i	-1.07
66	COc1ccc(N2CCC(N3CCN(C)C(CCO)C3)CC2)cc1 (stereo not given)	i	-2.22
67	Cc1ccc(/C=C/C(=O)O)cc1S(=O)(=O)NCCO	i	-0.32
68	CCOC(=O)c1c(NC(=O)CSc2ncn[nH]2)sc(C(=O)NC)c1C	i	2.32

The listing continues:
cpd	Structure	KCNQ2 inh	KCNQ2 inh baseline
69	CCNC(=O)COc1ccc2ccccc2c1	i	0.83
70	CC(=O)Oc1ccc(N(C(C)=O)S(=O)(=O)c2ccc3ccccc3c2)cc1Br	i	-0.06
71	COc1ccc(CNC(=O)C2CCC(CNS(=O)(=O)c3ccc(C)cc3)CC2)cc1 (stereo not given)	i	0.39
72	O=S(=O)(c1ccc(Cl)c(C(F)(F)F)c1)N1CCN(CC(O)COCC2CCCO2)CC1 (stereo not given)	i	0.54
73	CC(=O)Nc1ccc(S(=O)(=O)Nc2nnc(C(C)(C)C)s2)cc1	i	-2.13
74	COCCn1c(SCC(=O)N2CCc3ccccc3C2)nc2ccccc2c1=O	i	-0.43
75	CS(=O)(=O)c1ccc(Cl)c(NC(=O)Cc2c(F)cccc2Cl)c1	i	-0.51
76	CCO[C@@H]1OC(C(=O)NCc2nc3ccccc3[nH]2)=C[C@H](c2cn(C(C)=O)c3ccccc23)[C@H]1CCCO	i	0.91
77	Cc1ccc(SCC(=O)OCC(=O)N(CC(C)C)c2c(N)n(Cc3ccccc3)c(=O)[nH]c2=O)cc1C	i	0.41
78	Cc1cccc(-n2c(CCn3nc(C)c([N+](=O)[O-])c3C)n[nH]c2=S)c1	i	-2.27
79	CC(=O)C1=C(O)C(=O)N(c2nccs2)C1c1ccc(F)cc1 (stereo not given)	i	-0.21
80	COc1cccc(-c2nc(=S)c3c(n2Cc2ccco2)CCCC3)c1	i	0.02
81	Cc1ccc(-c2nnc(CSc3nc(C)nc4sc(C)c(C)c34)o2)cc1	i	-1.37
82	Cc1ccc(C)c(NC(=O)C(Sc2nc3ccc(C)cc3[nH]2)c2ccccc2)c1 (stereo not given)	i	0.42
83	CCOP(=O)(OCC)C(NC(=O)c1cc([N+](=O)[O-])cc([N+](=O)[O-])c1)C(F)(F)F (stereo not given)	i	0.43
84	Cc1cc(Cl)nc(Cl)c1C(=O)NCc1ccc(Cl)cc1	i	-0.27
85	COc1ccc(NS(=O)(=O)c2cc(NC(=O)CC3CCCC3)ccc2N2CCOCC2)cc1	i	1.63
86	CCCc1nn(C)c2c(=O)[nH]c(-c3cc(S(=O)(=O)Nc4ccc(NC(C)=O)cc4)ccc3OCC)nc12	i	-0.64
87	Cc1cccc2c1-c1sc(C(=O)NCCCN3CCC(C)CC3)cc1CO2	i	0.48
88	CC(C)(C)S(=O)(=O)c1cnc(-c2ccccn2)nc1N	i	1.97
89	CN1CCC(N(C)C(=O)/C=C/c2cn(-c3ccccc3)nc2-c2cccs2)CC1	i	-1.23
90	COc1ccc(C(=O)NC(=S)NCc2cccnc2)cc1Br	i	1.78
91	Cc1cc(C)c(Cc2c(C)nc3c(C(=O)NCc4ccco4)cnn3c2C)c(C)c1	i	-1.48
92	O=C(c1ccco1)N1CCN(C(=O)c2ccc(COc3ccc4c(c3)CCC4)o2)CC1	i	0.29
93	CCCOc1ccc(OC(=O)Cc2ccc(OC)c(S(=O)(=O)N3CCOCC3)c2)cc1	i	-0.04
94	O=C(CSc1nnc(NC(=O)C2CC(=O)N(c3ccccc3)C2)s1)NC1CCCC1 (stereo not given)	i	0.92
95	CC(=O)Nc1ccc(S(=O)(=O)Oc2ccc(/C=C3\SC(N)=NC3=O)cc2)cc1	i	-0.23
96	CCN(CC)c1ccc(/C=C/C(=O)c2cccnc2)cc1	i	-0.91
97	COC(=O)c1ccccc1NC(=O)CN1CCN(C(=O)c2ccco2)CC1	i	-1.64
98	Cc1[nH]n(-c2ccccc2)c(=O)c1C=Nc1cccc(F)c1	i	0.01
99	OCCC1CN(Cc2cccn2-c2nccs2)CCN1Cc1ccc(F)c(F)c1 (stereo not given)	i	-0.13
100	Nc1cc2c(cc1O)CCCC2	i	-2.8
101	COc1ccc(C/C(C)=N/NC(=O)c2ccc(C)cc2C)cc1	i	-1.06
102	CCCc1cc(=O)n2nc(N3CCC(C(=O)NCc4ccco4)CC3)sc2n1	i	0.69
103	COc1cccc(CC(NC(C)=O)C(=O)NC2CCN(c3ncccc3[N+](=O)[O-])CC2)c1 (stereo not given)	i	1.13
104	COc1ccccc1CCN1CCCC(CN(C)C(=O)CCC(=O)N(C)C)C1 (stereo not given)	i	1.26
105	O=c1[nH]c2ccc(NCc3ccccc3OCc3ccc(Cl)cc3)cc2[nH]1	i	0.37
106	COc1ccc(-c2cc(C)nc(SCC(=O)c3cccc([N+](=O)[O-])c3)n2)cc1	i	-0.27
107	Cn1cc(C(=O)c2ccc(Cl)cc2Cl)cc1C(=O)NN	i	-1.41
108	CC1(C)N(OCc2ccccc2)C(=O)C(=O)N(OCc2ccccc2)C1(C)C	i	-0.09
109	CC1CCCN(c2nc3ccccc3nc2C(C#N)S(=O)(=O)c2cccs2)C1 (stereo not given)	i	-0.44
110	Cc1cc(C(=O)NNC(=S)NCc2ccccc2)no1	i	1.38
111	Cc1ccc2nc(-c3ccccn3)cc(C(=O)NCCc3ccc(F)cc3)c2c1	i	-2.13

A different layout for part of the listing above:
nr | KCNQ2 inh | KCNQ2 inh baseline | Structure
13 | i | 1.75 | CC1(C)Cc2ccccc2C(N/N=C/c2ccc(Cl)cc2)=N1
18 | i | 2.23 | O=C(CCn1c(=O)oc2ccccc21)Nc1cccc(Br)c1
27 | i | 1.23 | N/C(Cn1cncn1)=N\OC(=O)c1ccc(Cl)cc1
